# Screening results: PubChem, several laboratories
# HNF4A DNA FP = change in binding of human HNF4 alpha to DNA. P41235. HNF4a-FITC DNA binding, fluorescence polarization, 1 h. activity change, % at 10 µM. actives 0.3% (n = 360,000). AID 1224865; in the data active = activity change above about 30%, passing the limit was not always enough;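 note: controls were the assay level and a saturating level of protein; the project sought stronger binding though the title names inhibitors; some compounds called inactive have numbers as strong as hits; positive values seem to mean higher polarization but the record does not say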
# Target sequence (P41235 whole entry, looked up): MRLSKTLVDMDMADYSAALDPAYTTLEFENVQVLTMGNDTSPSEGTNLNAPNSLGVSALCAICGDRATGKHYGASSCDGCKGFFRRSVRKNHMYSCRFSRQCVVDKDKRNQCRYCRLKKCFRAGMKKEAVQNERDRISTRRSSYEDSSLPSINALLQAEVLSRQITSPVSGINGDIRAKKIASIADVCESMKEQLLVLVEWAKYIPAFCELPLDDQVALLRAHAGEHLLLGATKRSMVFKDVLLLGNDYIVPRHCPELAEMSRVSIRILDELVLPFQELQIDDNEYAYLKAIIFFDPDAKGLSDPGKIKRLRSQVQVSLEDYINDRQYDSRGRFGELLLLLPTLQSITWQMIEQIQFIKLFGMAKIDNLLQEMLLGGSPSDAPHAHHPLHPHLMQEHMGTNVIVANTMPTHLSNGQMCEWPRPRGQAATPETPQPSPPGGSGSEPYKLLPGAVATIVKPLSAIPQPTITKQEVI
# AF4-AF9 inh = MLL-AF4/AF9 protein interaction inhibition. AlphaScreen, biotin-AF4 peptide binding to FLAG-AF9. inhibition, % at 10 µM. actives 0.47% (n = 350,000). AID 651704;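 active = every replicate reaching a set inhibition limit, whatever the replicate mean, cut at about 25% in these data; inconclusive = mean inhibition reaches that limit but some replicates miss it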;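 note: 0% = plate neutral control median and 100% = total signal loss; the record names both 10 and 1 µM as test concentration; the first replicate is given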
# ALR inh = blocks human ALR sulfhydryl oxidase activity; P55789; purified ALR, DTT oxidation, H2O2 HRP-luminol luminescence; inhibition, % (concentration not given with the values); actives 3.8% (n = 290,000); AID 485317;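 active = mean and each replicate at 75% or more; inconclusive = only one of the two met; inactive = neither met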;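 note: stock transfer was 7.5 nL into about 7.5 µL; 0% = neutral wells and 100% = wells with inactivated enzyme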
# Target sequence (P55789 whole entry, looked up): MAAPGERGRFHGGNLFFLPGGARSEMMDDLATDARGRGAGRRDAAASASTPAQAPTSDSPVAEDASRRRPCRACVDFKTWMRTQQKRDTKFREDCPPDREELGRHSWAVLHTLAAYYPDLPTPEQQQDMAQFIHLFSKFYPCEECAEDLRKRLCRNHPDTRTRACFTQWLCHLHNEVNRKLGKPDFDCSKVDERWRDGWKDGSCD
# Vif TR-FRET = HIV-1 Vif–A3G interaction blockers – biochemical, TR-FRET, GST-Vif 1-94, biotin-A3G peptide, dose response retest, primary screen (AID 1117319) | TR-FRET GST-Vif / biotin-A3G peptide binding; higher % means a stronger effect; test concentration not given here; strong numbers were not always called active | one-dose inhibition, %; IC50 in µM for titrated hits | actives 0.57% (n = 260,000);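 active = above the screen mean plus three standard deviations and confirmed in dose response; inconclusive = results disagree or hit not tested in dose response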;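 note: Vif residues 1-94 fused to GST binding biotinylated APOBEC3G peptide 110-148; 0% = full assay without inhibitor and 100% = GST in place of GST-Vif; retest series ran down from 100 µM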
# FGF22 binding = shifts melting point of recombinant human FGF22; calls only at 9.99 µM; recombinant FGF22 thermal shift, SYPRO orange fluorescence; percent of sucrose octasulfate shift, DMSO zero; actives 1.5% (n = 340,000); Q9HCT0;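 active = melting point raised past a set limit in the mean and every replicate; inconclusive = no clear call; three in four hits are not shown here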
# Target sequence (Q9HCT0 whole entry, looked up): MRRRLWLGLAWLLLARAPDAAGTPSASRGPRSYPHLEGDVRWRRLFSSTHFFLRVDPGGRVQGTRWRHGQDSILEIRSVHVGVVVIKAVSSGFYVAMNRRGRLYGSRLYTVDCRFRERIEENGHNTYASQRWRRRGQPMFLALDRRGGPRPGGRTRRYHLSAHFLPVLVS
# rRNA inh HTS = inhibits bacterial ribosomal RNA function over humanized ribosomes | actives 1.6% (n = 350,000) | E. coli WT GFP vs humanized-ribosome RFP mutants, fluorescence, 24 h; hits give low values; DMSO median 0, no signal -100 | GFP signal change (wild-type ribosome), % (test concentration not listed);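 active = significant combined selectivity score with lowered wild-type GFP, culture density cut under 30%, mutant RFP and density less affected; inactive = any of these conditions unmet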; note: one replicate is shown; some compounds called inactive have numbers as strong as hits
# Ecoli growth = inhibitors of Escherichia coli growth. actives 0.21% (n = 330,000). AID 1053175. OD600 absorbance (test concentration not listed). OD600, 23 h; hits give low values;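 active = OD600 absorbance below the run mean of sample wells minus 3.6 SD, in any replicate, cut at about 0.56 in these data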;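 note: stock transfer was 300 nL into about 60 µL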
# rRNA inh HTS OD600 = second read-out of rRNA inh HTS, no call of its own (marks repeat the call); OD600 change, %; measured here: OD600 growth;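 optical density of the mix in the first replicate; 0 = DMSO median and -100 = no signal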
# rRNA inh HTS RFP = also measured in rRNA inh HTS; calls as there; RFP signal change, %; measured here: RFP humanized mutant strains;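 first replicate; 0 = DMSO median and -100 = no signal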
# * marks the source's active call; other numbers are inactive results; i = inactive; ? = inconclusive; / = not tested or not shown. Not all compounds are listed; count on the stated rates, not on these rows.
SMILES,HNF4A DNA FP,AF4-AF9 inh,ALR inh,Vif TR-FRET,FGF22 binding,rRNA inh HTS,rRNA inh HTS OD600,rRNA inh HTS RFP,Ecoli growth
COc1ccc(-n2c(/C=C/c3ccc(O)c(O)c3)nc3ccccc3c2=O)cc1,20,9.6,63,/,i,-21*,-15*,1.9*,0.65
CCOC(=O)C(O)(c1ccc(N(CC)S(=O)(=O)c2ccccc2)cc1)C(F)(F)F (stereo unspecified),1.0,/,-2,-9%,/,/,/,/,0.7
CN1C(=O)N(C)C(=O)C2(Cc3cc([N+](=O)[O-])ccc3N(C)C2)C1=O,2.2,-0.6,/,-4%,i,16,18,4.6,0.68
Nc1c2c(nc3sc4c(c13)CCCC4)CCCCC2,-0.8,/,-1,0%,/,/,/,/,0.67
CCCC(=O)c1ccc(CP(=O)(OCC)OCC)o1,-1.2,-8.3,-2,-8%,i,10,11,2.2,0.61
O=C1NC(=O)C2(CCN(S(=O)(=O)c3ccccc3)CC2)C(=O)N1,0.2,-2.6,/,8%,i,13,19,-0.3,0.63
CC(N=Cc1c(O)n(C2CC2)c(=S)[nH]c1=O)c1ccccc1 (stereo unspecified),1.1,0.5,5,14%,i,23,1,1.7,0.7
O=C(CCCC1=NS(=O)(=O)c2ccccc2N1)N1CCC2(CC1)OCCO2,0.4,/,-6,14%,/,/,/,/,0.69
CCC1=C(C)C(N2CCOCC2)=NP(N2CCOCC2)(N2CCOCC2)=N1,10,/,3,31%,/,/,/,/,0.71
CCCCn1nnnc1C(c1ccnc2ccccc12)N1CCC2(CC1)C(=O)NCN2c1ccccc1 (stereo unspecified),-0.5,0.7,/,/,i,-1,-3,1.5,/
O=C(Nc1ccc(F)cc1F)c1cccnc1Oc1cccc(C(F)(F)F)c1,0.7,/,-8,-2%,/,/,/,/,0.68
Clc1ccc(-c2nc3ccc(Cl)cn3c2CN2CCCCC2)cc1,-1.5,-12,-7,-4%,i,-18,-55,16,0.69
O=C1NC(=O)N(c2ccccc2)C(=O)/C1=C/c1coc2ccc(O)cc2c1=O,6.5,3.0,55,21%,i,5,8,-0.7,0.61
Cc1ccc(N)c(C(=O)c2ccccc2)c1,-0.6,6.0,3,2%,i,-1,-1,-1.1,0.68
CCOC(=O)c1cccc(-[n+]2c(-c3ccccc3)cc(-c3ccccc3)cc2-c2ccccc2)c1,-2.7,5.4,15,/,i,-54,-82,-28,0.66
Cc1ccccc1C(O)(Cc1ccccc1)C1CN2CCC1CC2 (stereo unspecified),1.1,/,-13,8%,/,/,/,/,0.65
COc1cccc(OC)c1CN1CCCC(C(=O)c2cccc(Cl)c2)C1 (stereo unspecified),-2.7,7.8,-4,/,i,-12,-17,-2.0,0.62
CCNC(=O)NNC(=O)C1CC(c2cccnc2)=NO1 (stereo unspecified),-4.3,-1.7,-4,-3%,i,16,22,5.0,0.69
CNC(=O)N(C)c1ccc(C(O)(C(=O)OC)C(F)(F)F)cc1 (stereo unspecified),1.1,1.0,-5,4%,i,18,10,8.5,0.66
O=c1[nH]c2ccccc2n1C1CCN(C(CCc2ccccc2)c2nnnn2Cc2ccccc2)CC1 (stereo unspecified),-3.5,-0.3,/,/,i,7,16,2.6,/
CCOc1ccc(-c2cc(C)[n+](CCN3CCOCC3)c(-c3ccc(OCC)cc3)c2)cc1,-0.4,/,1,/,i,-53*,-30*,-15*,0.67
CC1(O)CCN2C(=O)CCc3cccc1c32 (stereo unspecified),-6.7,-2.6,97*,22%,i,-33,-45,-7.8,0.68
O=P(Oc1ccccc1)(Oc1ccccc1)N1CCN(c2ccc(F)cc2)CC1,2.3,/,-4,2%,i,-10,-16,-0.5,0.66
COc1ccc(CCNCC2CCCO2)cc1 (stereo unspecified),2.1,1.5,1,/,i,-2,1,-2.0,0.72
CCN1C(=O)CC(=O)N(CC)C1=S,1.1,2.8,/,9%,i,7,14,21,/

# Further results follow.
SMILES,HNF4A DNA FP,AF4-AF9 inh,ALR inh,Vif TR-FRET,FGF22 binding,rRNA inh HTS,rRNA inh HTS OD600,rRNA inh HTS RFP,Ecoli growth
N#Cc1cccc(-c2ccc([C@H]3[C@@H](CO)N4CCCCN(C(=O)Cc5ccccc5)C[C@H]34)cc2)c1,/,0.0,/,/,i,0,2,1.0,/
COC(=O)C1=C(c2ccc(F)cc2OCc2ccccc2)C[C@@H]2CC[C@H]1N2C(=O)NCc1ccc(C(C)(C)C)cc1,5.7,-1.6,-9,/,i,15,30,4.8,/
COC(=O)[C@@H]1[C@@H](CO)[C@@H]2Cn3c(cccc3=O)[C@H]1N2C(=O)C1CC1,/,0.6,/,/,i,3,5,-2.3,/
COCCn1c(-c2ccccc2)cc(C(=O)O)c1C,1.8,/,10,/,/,/,/,/,0.7
CCN(CC)P(=O)(c1n(CC)cc[n+]1CC)N(CC)CC,12,-3.4,-13,13%,i,15,11,-1.4,0.68
CCC(c1nnnn1Cc1ccccc1)N1CCC2(CC1)C(=O)NCN2c1ccccc1 (stereo unspecified),-0.7,2.8,/,/,i,-28,-39,-4.2,/
COc1ccc(OC)c(N=Cc2c(O)[nH]c(=O)[nH]c2=O)c1,-3.8,-4.1,-12,-1%,i,13,10,1.3,0.68
Cc1cccc(C)c1NC1=NCCCCS1,2.6,/,/,24%,/,/,/,/,0.68
Oc1cc2c(cc1CN1CCN(c3ccccc3)CC1)OCO2,1.0,8.7,60,/,i,0,-4,-0.6,0.69
CCOc1cc(/C=C2\C(=O)NC(=O)N(C)C2=O)cc([N+](=O)[O-])c1O,-4.0,-10.0,/,/,i,-3,-1,2.6,0.66
Nc1c2c(nc3sc4c(c13)CCCC4)CCCC2,3.6,-5.3,/,-4%,i,-29,-32,-7.9,0.56
O=C(c1sc2ccccc2c1Cl)N1CCC2(CC1)OCCO2,2.2,-2.7,-9,13%,i,-20*,-9.6*,7.1*,0.72
C=CC(=O)OCCO,0.4,0.6,/,/,i,11,7,0.6,/
CC(C)OC(=O)Cc1ccccc1,0.6,/,8,/,i,4,4,-1.3,0.67
CCCNC(=O)[C@H]1[C@H](CO)[C@H]2Cn3c(cccc3=O)[C@H]2N1C,/,-1.4,/,/,i,2,5,-3.9,/
C1=NCCCN2CCCCC12 (stereo unspecified),4.0,-0.7,/,-1%,i,20,22,0.5,/
COC(=O)C1=C(c2cccc(OC)c2OC)C[C@@H]2CC[C@H]1N2C(=O)NCc1ccco1,-1.9,-3.5,5,/,i,12,-7,-5.8,/
CCCc1nc2ccccc2c(=O)n1-c1ccc(O)cc1,-0.4,1.2,-12,6%,i,-3,-9,-1.9,0.65
CC1=C(C(=O)N2CCC3(CC2)OCCO3)C2(CCC(C)CC2)OC1=O (stereo unspecified),3.1,/,-17,6%,/,/,/,/,0.69
Cc1ccc(N)cc1N,1.7,/,57,/,i,0,4,-3.3,/
CCOc1ccc(Cc2c(O)[nH]c(=O)[nH]c2=O)cc1,2.1,/,-42,14%,/,/,/,/,0.77
CN(C)c1ccc(N=Cc2c(O)n(CCC3=CCCCC3)c(=O)[nH]c2=O)cc1,16,/,-16,?,/,/,/,/,0.72
COc1ccc(C(c2nnnn2Cc2ccccc2)N2CCC3(CC2)C(=O)NCN3c2ccccc2)cc1 (stereo unspecified),3.3,3.0,/,/,i,-11,-4,2.9,/
CN1CC(C(=O)c2ccccc2)C(C(=O)c2ccccc2)C1 (stereo unspecified),-3.5,/,-13,?,/,/,/,/,0.68
CCCC[n+]1cc(=N)o[n-]1,0.7,/,-9,/,/,17,6,-4.8,0.7

# New compounds follow:
SMILES,HNF4A DNA FP,AF4-AF9 inh,ALR inh,Vif TR-FRET,FGF22 binding,rRNA inh HTS,rRNA inh HTS OD600,rRNA inh HTS RFP,Ecoli growth
C#CC[N+]1(C)[C@@H]2CC(OC(=O)C(CO)c3ccccc3)C[C@H]1C(O)C2 (stereo partly specified),3.4,-0.8,-23,-3%,i,21,14,2.8,0.67
O=C(Cc1cccnc1)N1CCCCN2[C@H](CO)[C@@H](c3ccc(C#CC4CCCC4)cc3)[C@H]2C1,/,3.5,/,/,i,-60,-75,-14,/
COc1cc2c(cc1O)C[C@H]1c3c(cc(O)c(OC)c3-2)CCN1C,-5.8,2.4,98*,/,i,/,/,/,/
OC1C2CN3CN(C2)CC1(c1ccccc1)C3 (stereo unspecified),2.2,/,/,10%,i,18,12,1.0,0.69
CC1CN=C(Nc2ccccc2)S1 (stereo unspecified),-2.0,/,-2,26%,/,/,/,/,0.66
COC(=O)C1=Nc2ccccc2/C1=C\c1c(O)n(-c2cc(OC)ccc2OC)c(=O)[nH]c1=O,7.1,4.1,9,19%,i,7,6,9.2,0.64
O=C(COC(=O)Cc1ccccc1)Nc1cc(S(=O)(=O)N2CCOCC2)ccc1N1CCCC1,-0.4,1.6,-26,/,i,-8,-4,-1.0,0.73
CCCCn1c(O)c(C=NCCCn2ccnc2)c(=O)[nH]c1=O,5.8,/,0,2%,/,/,/,/,0.72
COP(=O)(NC(C)=O)SC (stereo unspecified),-0.7,-0.6,/,/,i,/,/,/,/
COC(=O)C1=C(c2cccc(OCc3ccccc3)c2)C[C@@H]2CC[C@H]1N2C(=O)NCc1ccc(OC)cc1,-3.1,1.4,-4,/,i,3,4,-3.2,/
Cn1c(=O)c2c(nc(N/N=C/c3c(O)n(C4CCCCC4)c(=S)[nH]c3=O)n2C)n(C)c1=O,6.3,3.9,14,12%,/,-4,-1,4.7,0.68
CCCCCCCn1c(=O)c(C(=O)Nc2cnccn2)c(O)c2ccccc21,-0.3,-1.1,2,4%,i,12,15,-3.4,0.73
Cc1cc(S(=O)(=O)NC(C)C)ccc1OCC(=O)N1CCN(Cc2ccc3c(c2)OCO3)CC1,0.3,/,-5,14%,/,/,/,/,0.65
N=c1c[n+](C2CCCCC2)[n-]o1,1.4,-0.6,-3,2%,i,18,8,-1.1,0.67
C#CCCC[C@@H]1OC(=O)CNC(=O)C([C@@H](C)CC)NC(=O)[C@@H]2CCCN2C(=O)C([C@@H](C)CC)OC(=O)[C@H](Cc2ccccc2)N(C)C(=O)[C@H](C(C)C)NC(=O)C1(C)C (stereo partly specified),0.0,6.1,/,/,i,6,6,0.0,/
O=C(O)C(Cl)(Cl)Cl,0.4,-0.8,2,/,i,/,/,/,0.72
CCn1c(C)c(C(=O)NCCc2ccccc2)c2cc(OC)ccc21,-0.5,0.3,-11,-13%,i,-2,11,-3.9,0.67

# Laid out differently: entries from further up.
molecule	HNF4A DNA FP	AF4-AF9 inh	ALR inh	Vif TR-FRET	FGF22 binding	rRNA inh HTS	rRNA inh HTS OD600	rRNA inh HTS RFP	Ecoli growth
COC(=O)C1=Nc2ccccc2/C1=C\c1c(O)n(-c2cc(OC)ccc2OC)c(=O)[nH]c1=O	7.1	4.1	9	19%	i	7	6	9.2	0.64
Cc1ccccc1C(O)(Cc1ccccc1)C1CN2CCC1CC2 (stereo unspecified)	1.1	/	-13	8%	/	/	/	/	0.65
CCOc1ccc(-c2cc(C)[n+](CCN3CCOCC3)c(-c3ccc(OCC)cc3)c2)cc1	-0.4	/	1	/	i	-53*	-30*	-15*	0.67
COP(=O)(NC(C)=O)SC (stereo unspecified)	-0.7	-0.6	/	/	i	/	/	/	/
CC1CN=C(Nc2ccccc2)S1 (stereo unspecified)	-2.0	/	-2	26%	/	/	/	/	0.66
O=C(COC(=O)Cc1ccccc1)Nc1cc(S(=O)(=O)N2CCOCC2)ccc1N1CCCC1	-0.4	1.6	-26	/	i	-8	-4	-1.0	0.73
